Screening results: PubChem BioAssay, National Center for Advancing Translational Sciences (NCATS)
ClpP mod: qHTS Assay for Activators of ClpP | Potency, µM (series often up to 57.5 µM), without a hit: top-dose activity change, negative = active | AID 651965, 2013 | purified B. subtilis ClpP, FRET peptide cleavage, 20 min | hit rate 1.9% among 340,000; active = well fitted falling curve with a large enough effect; inconclusive = small, poorly fitted or top-dose-only effect; inactive = no such curve, though single readings can be large or run the other way; further: potency means the concentration at half of the fitted maximal effect; the source files actives as falling curves though it sought activators and does not explain the sign; nearly all actives have a fitted effect of over 65% in size; many hits overshoot -100%
Target sequence (P80244 whole entry, looked up): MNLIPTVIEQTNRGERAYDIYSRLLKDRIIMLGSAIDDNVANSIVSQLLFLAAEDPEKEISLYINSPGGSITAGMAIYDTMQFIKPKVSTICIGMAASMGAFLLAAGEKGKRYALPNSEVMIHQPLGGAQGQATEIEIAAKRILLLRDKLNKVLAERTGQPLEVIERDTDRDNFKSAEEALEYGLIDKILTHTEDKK
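Purified B. subtilis ClpP, 10 microg/mL final in Tris/HCl pH8 with KCl, BSA, glycerol and Tween-20, cleaved an Abz/nitrotyrosine-quenched decapeptide. Fluorescence (ex 320, em 430) was read at 0 and 20 min at room temperature. Delta was normalized to 5.8 microM ADEP and DMSO/no-enzyme controls.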
PINK1 expr mod: changes PINK1 expression | PINK1 immunofluorescence, high-content cytometry, 24 h | Potency, µM (titrated, usually from 76.6 µM), inactives show top-dose activation (PINK1 increase), actives largely listed as activators | hit rate 0.2% among 410,000 | AID 624263; active = well fitted activation curve with a large enough effect; inconclusive = small, poorly fitted or top-dose-only effect; inactive = flat fitted curve, though single readings scatter; cell line not stated here;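 further: potency means the concentration at half of the fitted maximal effect; % of control where 0% means no effect; nearly all actives have a fitted effect of over 65% in size; a mitochondrial uncoupler was the plate control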
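PINK1 protein, normally rapidly degraded, was detected by immunofluorescence after 24 hour compound treatment of a stable cell line. Titration data (5 concentrations) came from laser-scanning cytometry, with CCCP-treated wells as controls.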
Sfp PPTase inh: Sfp phosphopantetheinyl transferase inhibition. Q9F4F7. Biochemical Sfp PPTase activity, qHTS. Potency, µM, inactives show max response, negative = inhibition, most hits filed as inhibitors. hit rate 3.5% among 310,000. AID 1490; active means well fitted inhibition curve with a large enough effect; inconclusive means small, poorly fitted or top-dose-only effect, or another doubt; inactive means no such curve, though single readings can be large or run the other way;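 further: the enzyme is Sfp with the accession as filed and its product quenches rhodamine fluorescence; potency means the concentration at half of the fitted maximal effect; 0% = enzyme reaction without inhibitor and -100% = no enzyme wells; top concentration of the series not given in the record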
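Buffer: 50 mM Hepes-Na pH 7.6, 10 mM MgCl2, 0.01% Nonidet P-40, 0.01% BSA. Enzyme 15 nM, pre-exposed to compound 15 min; substrates then added and fluorescence change tracked over 30 min.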
gsp agonist: gsp mutant agonism | Potency, µM (titrated, usually from 76.9 µM), for the others: top-dose activation (cAMP increase), actives largely listed as activators | gsp mutant cells, cAMP HTRF, 30 min; control for the full effect not named in the record | hit rate 0.13% among 340,000; active = well fitted activation curve with a large enough effect; inconclusive = small, poorly fitted or top-dose-only effect, or another doubt; inactive = no such curve, though single readings can be large or run the other way; cell line not stated here;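 further: phosphodiesterase inhibitor Ro 20-1724 added with compounds to block cAMP breakdown; potency means the concentration at half of the fitted maximal effect; nearly all actives have a fitted effect of over 60% in size; about a fifth of the inactives were tested at one dose only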
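Cells in DMEM/10% FBS with G418 were pretreated with compounds in DMSO plus […] (300 uM stock) for 30 min at 37C. cAMP was measured by HTRF (cAMP-d2 plus anti-cAMP antibody-K) after 30 min at room temperature.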
gsp antagonist: antagonizes gsp, the McCune-Albright syndrome mutation | AID 624288 | hit rate 0.4% among 340,000 | gsp-mutant cells, cAMP HTRF, 30 min; control for the full effect not named in the record | Potency, µM (highest dose often 76.9 µM), for the others: at the highest dose activity change, negative = inhibition, actives largely listed as inhibitors; active = falling curve of any shape with a large fitted effect; inconclusive = falling curve, mostly with a smaller effect; inactive = flat or rising curve; cell line not stated here;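 further: intracellular cAMP measured with PDE inhibitor Ro 20-1724 present during compound exposure; potency means the concentration at half of the fitted maximal effect; on the % scale 0 is the no-effect control and ±100 the full control effect; nearly all actives have a fitted effect of over 65% in size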
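HTRF cAMP measurement after 30 min RT detection following 30 min, 37C compound treatment alongside […] (added as 300 uM solution) in G418-selected cells seeded at 2000/well and grown 16–24 h.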
D2 agonist: activates the human D2 dopamine receptor | activation, % (no concentration beside the values) | DiscoveRx PathHunter D2 beta-arrestin, luminescence, 90 min; 100% = 57 uM dopamine signal | P14416 | hit rate 0.084% among 360,000; in the data active = activation above about 40%; inconclusive = about 15% to 40%; inactive = below about 15%; further: compound concentration not given in the record; the text of the record calls up to 30% inactive
Target sequence (P14416 whole entry, looked up): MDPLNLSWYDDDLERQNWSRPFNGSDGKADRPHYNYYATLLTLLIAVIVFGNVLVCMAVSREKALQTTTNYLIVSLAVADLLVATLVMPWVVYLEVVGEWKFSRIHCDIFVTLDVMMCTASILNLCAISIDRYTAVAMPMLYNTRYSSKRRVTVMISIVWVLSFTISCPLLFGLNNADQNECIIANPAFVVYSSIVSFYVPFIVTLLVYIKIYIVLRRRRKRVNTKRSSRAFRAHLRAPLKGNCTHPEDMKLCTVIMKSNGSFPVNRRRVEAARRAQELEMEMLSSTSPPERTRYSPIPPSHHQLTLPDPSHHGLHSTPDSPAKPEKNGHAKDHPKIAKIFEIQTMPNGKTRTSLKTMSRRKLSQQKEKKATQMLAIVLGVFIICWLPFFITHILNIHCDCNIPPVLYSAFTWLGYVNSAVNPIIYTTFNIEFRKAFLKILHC
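Agonist mode: compounds alone added to overnight-plated D2 PathHunter cells for 90 min at 37 C, with 57 uM final dopamine (EC100) defining full response. Beta-arrestin recruitment detected by chemiluminescent reagent, read after 1 h at ambient temperature.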
Menin-MLL FL inh: inhibitors of human menin-MLL interaction, wild-type MLL peptide | Fluorescence polarization, fluorescein-MLL peptide displacement from menin | FP activity change, % at 61.4 µM | 290,000 tested, under 10 active | AID 1766; inconclusive = falling polarisation curve, or a change in total fluorescence; inactive = total fluorescence flat and polarisation flat or rising; no compound was filed as active; the % refers to the polarisation; negative = inhibition;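 further: % of control where 0% means no effect; inhibitors lower the polarisation; unlabelled MLL peptide was the positive control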
Active calls of the source: *; u = inconclusive; x = no result given; & = joins results of further samples; [ ] = remark or other dose.

SMILES	ClpP mod	PINK1 expr mod	Sfp PPTase inh	gsp agonist	gsp antagonist	D2 agonist	Menin-MLL FL inh
NC(=O)COc1cccc(/C=N/NC(=O)c2ccc(-n3cccc3)cc2)c1	-1.9%	-1.1%	-5%	3%	9%	-2.6	1.2
O=C(OCc1ccccc1)c1ccc2c(c1)-c1ccccc1C2=O	0.9%	-0.1%	3%	-30%	-15%	-1.8	-0.4
CCc1nnc(SCC(=O)NC2CCCC2)nc1CC	-4.8%	-4.2%[38.3 µM]	8%	5%	-3%	0.1	3.4
CCc1noc(C)c1C(=O)Nc1cccc(S(=O)(=O)N2CCCCCC2)c1	u	0.3%	x	u	-4%	0.9	x
CC1CN(CC(O)COCc2ccc3c(c2)OCO3)CC(C)O1 (stereo unspecified)	0.4%	1.7%	14%	30%	-11%	-0.5	-1.5
CCC(C)NC(=O)c1cc(Cl)c(NC(=O)C2=C(C)OCCS2)cc1OC (stereo unspecified)	0.2%	2.3%	4%	5%	-9%	2.1	4.5
Cc1ccc(OCc2nnc(NC(=O)OCC(C)C)s2)cc1	-0.9%	-1.5%	u	u	15%	-1.8	2.7
COc1ccc(C(=O)NC(=S)N2CCCC2)cc1	1.1%	-0.5%	-6%	-1%	6%	-2.0	x
CCOC(=O)c1c(C)[nH]c(C)c1C(=O)COC(=O)c1cc2ccccc2cc1OC	-10%	1.0%	3%	-16%	-9%	-3.3	3.6
CCC(C)[C@H](NC(=O)NCCCn1ccnc1)C(=O)OC (stereo partly specified)	-4.6%	-2.6%	5%	-27%	9%	-2.3	1.8
O=C(COC(=O)c1nc(Cl)ccc1Cl)Nc1ccc(Cl)cn1	0.2%	0.2%	x	-7%	1%	2.9	x
COc1ccc(-c2[nH]ncc2CN2CCC(O)(c3ccc(Cl)cc3)CC2)cc1	x	3.3%	-8%	-1%	3%	2.1	7.5
C/C(=N\Nc1nc(-c2cc(C)ccc2C)cs1)c1cc2c(ccc3ccccc32)oc1=O	-3.8%	-1.9%	22%	-27%	2%	-3.0	10
COc1cc(OC)c2c(C)cc(=O)oc2c1C(CCN1CCN(c2ccccc2)CC1)c1ccc2c(c1)OCO2 (stereo unspecified)	32µM*	0.5%	-5%	x	0%	u	3.5
N#Cc1nc(-c2cccc(Cl)c2)oc1NCc1cccnc1	2.2µM*	3.2%[38.3 µM]	-22%	21%	9%	-0.5	-0.4
COc1ccc(C2(O)CCN(Cc3nnnn3Cc3ccc(C)cc3)CC2)cc1	-8.0%	x	4%	10%	5%	0.5	0.3
OCCC1CN(Cc2ccc(Oc3ncccn3)cc2)CCN1CCc1ccccc1 (stereo unspecified)	0.9%	-0.7%	16%	-8%	10%	-6.9	1.4
COc1ccc(C(=O)NC(=S)Nc2ccc(Cc3ccncc3)cc2)cc1	x	4.9%	-2%	-12%[15.4 µM]	-6%	2.2	6.6
COc1ccc(OCC2NCCc3cc(OC)c(OC)cc32)cc1 (stereo unspecified)	-1.3%	-1.6%	2%	-28%	-13%	-0.3	-8.7
O=C(C1=NN[C@@H]2C(=O)N(Cc3ccccc3)C(=O)[C@H]12)c1ccc(F)cc1	x	-0.5%	7%	-8%[15.4 µM]	-21%	4.7	u
O=C1c2nccnc2C(=O)N1Cc1ccccc1	-1.4%	-1.8%	x	-3%	6%	-3.8	x
CC(C(=O)N1CCCCC1)N1C(=O)c2ccccc2C1=O (stereo unspecified)	1.7%	-0.1%	10%	-4%	11%	-2.4	4.1
Cc1ccc(S(=O)(=O)Nc2cc3c4c(c2)C(C)C(=O)N4CCC3)cc1 (stereo unspecified)	-2.8%	0.5%	x	-44%[inhibitor]	2%	5.1	x
NS(=O)(=O)c1ccc(NC(=O)COC(=O)Cn2cnc3ccccc3c2=O)cc1	-1.7%	-2.2%	x	5%	2%	-1.7	x
CC(=O)c1c(C)[nH]c(C(=O)N2c3ccccc3CC2C)c1C (stereo unspecified)	0.5%	10%	-8%	12%	-1%	-2.5	0.1
CCN(CC)S(=O)(=O)c1cccc(NC(=O)CCNC(=O)c2ccc([N+](=O)[O-])cc2)c1	-4.2%	-1.4%	6%	0%	2%	2.7	-0.2
COCc1c(C(=O)NCCc2ccc(OC(F)F)cc2)oc2ccccc12	-0.6%	1.0%	x	21%	-21%	3.9	x
CCOc1ccc(NS(=O)(=O)c2ccc3[nH]cc(C(=O)NCC4CCCO4)c(=O)c3c2)cc1 (stereo unspecified)	-1.6%&6.4%	0.8%&6.5%	14%	6%	-13%	-0.8	-0.4
CN1CCN(c2ccncc2S(=O)(=O)N2CCCCC2)CC1	0.4%	1.7%	5%	-1%[15.4 µM]	11%	-1.6	0.2
O=C1NC(=O)/C(=C/c2ccccc2Oc2ccc(Cl)cc2)S1	2.1%	-2.8%	17%	12%	u	-1.0	-1.1
FC(F)(F)c1nnc2c(Sc3ccc(Cl)cc3)nc3ccccc3n12	-4.4%	-3.4%	7%	17%	25%	-5.6	-2.7
O=C(N/N=C/c1cccc(OCc2ccccc2)c1)c1ccc(Br)cc1	-15%	7.7%	3%	18%	u	-3.4	1.5
Cc1cccc(C(=O)NCC(=O)NC2CCN(Cc3ccccc3)CC2)c1	-0.3%	1.0%	x	-48%	8%	-3.8	x
CCCCNC(=O)C1(C)CCCCN1C(=O)c1ccc2sccc2c1 (stereo unspecified)	1.7%	0.6%	x	x	x	-2.2	x
O=S(=O)(c1ccc(Cl)cc1)N1CCc2ccccc21	0.9%	14%	1%	-1%	-12%	-6.3	u
Nc1ccn([C@@H]2O[C@H](CNC(=O)[C@@H](Cc3cccnc3)NC=O)[C@@H](O)[C@H]2O)c(=O)n1	-1.1%	0.1%	x	18%	x	-5.0	x
C=CCN=C1NN=C(c2ccc3c(c2)OCCO3)CS1	x	-2.0%	1%	-16%	3%	-13	7.2
Cc1nc2c(C(=O)NCc3ccccc3)c[nH]n2c(=O)c1Cl	u	-1.3%[38.3 µM]	17%	u	-1%	-1.1	1.4
COCC(=O)NC(c1ccccc1)c1ccccc1	u	-3.2%	11%	-8%	-1%	-2.4	2.3
CCN(CC)c1nc(-c2ccccc2)nc2ccccc12	-0.1%	u	-4%	-9%[15.4 µM]	-14%	0.4	2.3
N=C(N)SCCc1cnc[nH]1	-1.6%	1.7%	-112%&-8%	x	-10%	-5.3	u
C/C(=N\NS(=O)(=O)c1ccc([N+](=O)[O-])cc1)c1cccs1	1.3%	1.6%	1%	-3%	-15%	-1.5	-1.4
CCOc1ccc(C(=O)CCC(=O)N2CCN(c3ccc(O)cc3)CC2)cc1	-3.6%	1.3%	x	1%	-12%	2.1	x
C=CCn1c(Cc2c[nH]c3ccccc23)nnc1SCC(=O)NCc1ccccc1	-2.3%	x	15%	-4%	u	0.0	0.9
CCC1(c2ccc(F)cc2)NC(=O)N(CC(=O)NCc2ccc(C)cc2)C1=O (stereo unspecified)	0.4%	0.2%	4%	-2%[15.4 µM]	10%	-4.8	-4.9
CCNC(=O)Cn1cc(C#N)c2ccccc21	-1.8%	-1.5%	13%	2%	9%	-0.6	-1.3
COc1ccc(S(=O)(=O)N2CCOCC2)cc1NC(=O)Cc1ccsc1	20µM*	2.6%	x	4%	2%	-0.6	x
COC(=O)C[C@H](NC(=O)Cn1cnc(C(=O)Nc2ccc(C)c(C)c2)n1)C(=O)OC	-2.0%	0.2%	x	x	7%	-3.6	x
CCOC(=O)C1=C(C)Nc2nc3ccccc3n2C1c1ccc(O)cc1 (stereo unspecified)	-7.7%	-0.1%	15%	3%	6%	1.2	3.3
Nc1nc(SCC(=O)N2CCN(c3ccc(F)cc3)CC2)n[nH]1	-8.3%	0.5%	x	-17%	14%	-4.9	x
CC(=O)Nc1cccc(NC(=O)c2ccc(COc3ccccc3)cc2)c1	x	2.4%	4%	1%	4%	-5.4	6.6
COC(C[C@@H](O)C[C@@H](O)COCc1ccccc1)OC	1.5%	-1.3%	12%	-4%	7%	0.0	0.7
Cc1cc(C)nc(NS(=O)(=O)c2ccc(NC(=O)Cc3ccccc3F)cc2)n1	x	-0.2%	0%	-2%[15.4 µM]	x	-2.7	x
Cc1ccc(C)c(S(=O)(=O)N2CCN(C(=O)[C@@H]3CCCN3C(=O)c3cccs3)CC2)c1	-7.5%	2.3%	x	14%	-5%	-4.6	x
Fc1ccccc1-c1nc2ccccc2[nH]1	3.4%	-1.9%	-21%	13%	-7%	-0.5	-1.4
O=c1oc(-c2cccs2)nc2ccc(Br)cc12	28µM*	u	22%	-40%[inhibitor]	u	-1.3	4.9
O=C1c2ccccc2NC(c2ccc(-c3ccc(Br)cc3)o2)N1O (stereo unspecified)	-13%	7.1%[38.3 µM]	-3%	18%	-10%	2.1	0.1
COc1ccc(CCNC(=O)C2CCN(S(=O)(=O)c3cc(OC)ccc3OC)CC2)cc1	-1.5%	-1.1%	18%	-49%[inhibitor]	-3%	-0.2	1.6
Cc1cc2nc(-c3cccnc3SCC(=O)NCc3ccco3)[nH]c2cc1C	16µM*	u	40µM*	-18%	0%	1.6	u
CCOc1ccc(Nc2cc(C)nc3nc(C)nn23)cc1	-1.2%	-0.4%	-1%	-10%	-3%	-4.5	-1.0
Additional compounds:
SMILES	ClpP mod	PINK1 expr mod	Sfp PPTase inh	gsp agonist	gsp antagonist	D2 agonist	Menin-MLL FL inh
c1ccc(CCNc2cc(-c3ccc4ccccc4c3)nc3ccnn23)nc1	4.5%	4.2%	x	x	x	-6.6	x
COc1cc(C)ccc1OCC(=O)Nc1ccccc1N1CCOCC1	-0.5%	0.9%	x	-32%[inhibitor]	-15%	1.4	x
COc1ccc(NC(=O)c2sccc2OS(=O)(=O)N(C)C)cc1	x	1.0%	14%	9%[15.4 µM]	-8%	-4.1	0.2
O=C(/C=C/c1ccccc1)NCC(=O)N/N=C\c1cccnc1	-2.2%	0.1%	10%	7%	1%	-4.5	6.0
CN(C)CCN(C(=O)CN1C(=O)c2ccccc2C1=O)c1nc2cc3c(cc2s1)OCO3	3.3%	-2.8%	-28%	-16%	-3%	-1.9	0.3
